Mtb H37Rv: M. tuberculosis H37Rv growth inhibitors, H37Rv strain (AID 1626); M. tuberculosis H37Rv growth inhibition; higher % means a stronger effect; one-dose inhibition, % at 10 µM; IC50 in µM for titrated hits; 220,000 compounds, 0.95% hits;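 active means confirmed in a dose series; inconclusive means inhibition above 80% but not taken into the dose series; inactive means below 80% or under 30% at every dose of the series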;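 further: bacteria incubated seven days before Alamar blue readout; 0% = bacteria only wells and 100% = bacteria with antibiotic wells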
Mtb betalactam: beta-lactam sensitization of Mtb H37Rv; M. tuberculosis H37Rv growth with meropenem, percent inhibition; hits of this screen are not shown here; inhibition, % at 25 µM; 330,000 compounds, 0.27% hits; AID 434955;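 active means about 74% or more and at least 40 points above the plate without the antibiotic, then above 30% in a dose series; inconclusive means first-round hits that could not be retested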;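 further: growth measured after seven days incubation then overnight dye step; 0% = bacteria only wells and 100% = bacteria with antibiotic; twin plates without the antibiotic show which effects depend on it; some results filed as inactive read as strong as hits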
Arbovirus inh: blocks arbovirus infection. arbovirus infection cell-based antiviral screen. 200,000 compounds, 0.37% hits. inhibition, % at 10 µM;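 active means inhibition from about 30%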;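 further: bluetongue infection of BSR cells; cell survival read as ATP light after 72 h; 0% = infected wells without compound and 100% = uninfected wells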
YopH inh: blocks Yersinia enterocolitica YopH tyrosine phosphatase. 140,000 compounds, 0.16% hits. inhibition, %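 (about 10 µM by stock and volumes)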. fluorescence Ex485/Em525;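 active means inhibition of 50% or more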;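 further: controls were vehicle for no effect and minimum signal wells for full effect; inactives centre near -20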
RecA splice inh: Mtb RecA intein splicing inhibition | cell-free RecA intein splicing, fluorescence | inhibition, %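 (about 9 µM by stock and volumes)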 | 290,000 compounds, 0.75% hits; in the data active means inhibition above about 30%; inconclusive means no clear call, values can overlap the other calls;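 further: 0% = vehicle wells and 100% = reference inhibitor control wells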
Target sequence (P9WHJ3 whole entry, looked up, canonical isoform): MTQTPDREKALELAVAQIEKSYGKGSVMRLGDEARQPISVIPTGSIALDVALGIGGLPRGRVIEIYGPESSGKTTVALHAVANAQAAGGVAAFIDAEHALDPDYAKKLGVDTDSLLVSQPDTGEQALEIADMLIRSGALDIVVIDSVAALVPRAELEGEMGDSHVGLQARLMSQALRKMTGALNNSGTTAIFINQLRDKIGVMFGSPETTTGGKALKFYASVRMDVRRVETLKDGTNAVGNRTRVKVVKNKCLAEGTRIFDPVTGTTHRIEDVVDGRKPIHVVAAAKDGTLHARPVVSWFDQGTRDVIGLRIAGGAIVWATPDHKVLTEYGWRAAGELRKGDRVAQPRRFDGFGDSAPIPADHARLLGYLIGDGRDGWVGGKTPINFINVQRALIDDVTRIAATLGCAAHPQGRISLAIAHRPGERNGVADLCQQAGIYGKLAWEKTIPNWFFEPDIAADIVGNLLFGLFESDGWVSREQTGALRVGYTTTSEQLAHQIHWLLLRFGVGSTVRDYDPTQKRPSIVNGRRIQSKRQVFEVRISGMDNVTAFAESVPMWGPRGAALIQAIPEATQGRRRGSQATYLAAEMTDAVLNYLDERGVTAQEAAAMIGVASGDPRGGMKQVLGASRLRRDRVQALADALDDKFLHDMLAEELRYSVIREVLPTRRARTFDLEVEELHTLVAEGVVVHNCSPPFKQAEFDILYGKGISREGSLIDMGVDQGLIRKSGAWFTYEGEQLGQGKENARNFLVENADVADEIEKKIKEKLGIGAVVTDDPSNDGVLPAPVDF
Arbovirus inh repeat: further read-out of Arbovirus inh, marked with its call; inhibition, %; measured here: 10K subset replicate screen; many hits read low in the repeat;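 first of two repeat runs on a subset; 0% = infected and 100% = uninfected wells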
Starred values were filed as active, the others as inactive; ? = inconclusive; · = no result given. An excerpt. The share of hits here may be higher or lower than overall.

Start of the data: the first 22 compounds, to show the layout:
SMILES	Mtb H37Rv	Mtb betalactam	Arbovirus inh	YopH inh	RecA splice inh	others
Cc1ccc(S(=O)(=O)N2CCC(C(=O)N3CCc4ccccc43)CC2)cc1	·	-3	·	·	-0.4
COc1cccc(N2C(=O)C3C(C2=O)C2C=CC3C23CC3)c1 (centres undefined)	8%	-8	-2	-9	5.5
COc1ccc(CCNC(=O)CSc2ccccn2)cc1	3%	-2	0	·	·
O=C(O)C1C2C=CC3(CN(Cc4ccco4)C(=O)C13)O2 (centres undefined)	-4%	-5	1	·	-1.7	Arbovirus inh repeat=0
O=C(NCCC1=CCCCC1)c1cc(-c2ccncc2)nc2ccccc12	3%	-2	-16	·	2.5
CCn1nc(C)c(NC(=O)c2ccc(Br)o2)c1C	-7%	-3	2	-37	-3.7
Cc1ccc2nc(N3CCC(C(=O)N4CCC5(CC4)OCCO5)CC3)sc2c1	-2%	-3	1	-49	-1.1
COC(=O)C1CCN(C(=O)C2CCN(C(=O)[C@H](C)NS(=O)(=O)c3ccc(C)cc3)CC2)CC1	·	-9	·	·	-5.3
CNCCCc1[nH]nc(N)c1C#N	9%	-15	11	-7	-1.4
S=C(NCC1CCCO1)NC12CC3CC(CC(C3)C1)C2 (centres undefined)	-3%	-8	4	·	-5.2
O=S(=O)(Nc1ccc(Cl)cn1)c1cccs1	·	0	·	·	0.4
O=C(CN1C(=O)S/C(=C\c2ccccc2)C1=O)NC1CCS(=O)(=O)C1 (centres undefined)	·	-1	·	·	-1.9
O=C(O)C1CCCCC1C(=O)N1CC=C(c2ccccc2)CC1 (centres undefined)	-5%	-7	-5	-126	-4.2
COc1ccc(NC(=O)c2cc(S(=O)(=O)N3CCc4ccccc43)cn2C)c(OC)c1	·	-4	·	·	2.4
CCOC(=O)C1=C(C)NC(C)=C(C(=O)OCC)C1C(=O)OCC(=O)N1CCCCC1CC (centres undefined)	-1%	3	9	-7	-1.5
CN1CCN(CCCn2cnc3c(=O)oc4ccccc4c32)CC1	-11%	-3	13	6	1.9
Cc1ccc(OCC(=O)NNC(=O)c2cccnc2)cc1C	4%	-4	3	·	-1.3
CCCCC(c1nnnn1CC1CCCO1)N1CCN(c2nc3ccccc3s2)CC1 (centres undefined)	23%	·	-19	-37	4.2
COc1ccccc1Oc1c(C)oc2cc(OC(=O)c3ccco3)ccc2c1=O	1%	-2	2	-26	·
COc1ccc(C(=O)O/N=C(\N)c2ccc(OC)c(OC)c2)cc1	·	6	·	·	-0.5
CSc1nc(C)c(C(=O)C[n+]2ccc(C)cc2)cc1C#N	4%	-3	2	·	·
Nn1c(SCC(=O)Nc2ccccc2F)nnc1C1CCCCC1	·	17	·	·	-2.2

All compounds of this part, repeating the preview:
SMILES	Mtb H37Rv	Mtb betalactam	Arbovirus inh	YopH inh	RecA splice inh	others
Cc1ccc(S(=O)(=O)N2CCC(C(=O)N3CCc4ccccc43)CC2)cc1	·	-3	·	·	-0.4
COc1cccc(N2C(=O)C3C(C2=O)C2C=CC3C23CC3)c1 (centres undefined)	8%	-8	-2	-9	5.5
COc1ccc(CCNC(=O)CSc2ccccn2)cc1	3%	-2	0	·	·
O=C(O)C1C2C=CC3(CN(Cc4ccco4)C(=O)C13)O2 (centres undefined)	-4%	-5	1	·	-1.7	Arbovirus inh repeat=0
O=C(NCCC1=CCCCC1)c1cc(-c2ccncc2)nc2ccccc12	3%	-2	-16	·	2.5
CCn1nc(C)c(NC(=O)c2ccc(Br)o2)c1C	-7%	-3	2	-37	-3.7
Cc1ccc2nc(N3CCC(C(=O)N4CCC5(CC4)OCCO5)CC3)sc2c1	-2%	-3	1	-49	-1.1
COC(=O)C1CCN(C(=O)C2CCN(C(=O)[C@H](C)NS(=O)(=O)c3ccc(C)cc3)CC2)CC1	·	-9	·	·	-5.3
CNCCCc1[nH]nc(N)c1C#N	9%	-15	11	-7	-1.4
S=C(NCC1CCCO1)NC12CC3CC(CC(C3)C1)C2 (centres undefined)	-3%	-8	4	·	-5.2
O=S(=O)(Nc1ccc(Cl)cn1)c1cccs1	·	0	·	·	0.4
O=C(CN1C(=O)S/C(=C\c2ccccc2)C1=O)NC1CCS(=O)(=O)C1 (centres undefined)	·	-1	·	·	-1.9
O=C(O)C1CCCCC1C(=O)N1CC=C(c2ccccc2)CC1 (centres undefined)	-5%	-7	-5	-126	-4.2
COc1ccc(NC(=O)c2cc(S(=O)(=O)N3CCc4ccccc43)cn2C)c(OC)c1	·	-4	·	·	2.4
CCOC(=O)C1=C(C)NC(C)=C(C(=O)OCC)C1C(=O)OCC(=O)N1CCCCC1CC (centres undefined)	-1%	3	9	-7	-1.5
CN1CCN(CCCn2cnc3c(=O)oc4ccccc4c32)CC1	-11%	-3	13	6	1.9
Cc1ccc(OCC(=O)NNC(=O)c2cccnc2)cc1C	4%	-4	3	·	-1.3
CCCCC(c1nnnn1CC1CCCO1)N1CCN(c2nc3ccccc3s2)CC1 (centres undefined)	23%	·	-19	-37	4.2
COc1ccccc1Oc1c(C)oc2cc(OC(=O)c3ccco3)ccc2c1=O	1%	-2	2	-26	·
COc1ccc(C(=O)O/N=C(\N)c2ccc(OC)c(OC)c2)cc1	·	6	·	·	-0.5
CSc1nc(C)c(C(=O)C[n+]2ccc(C)cc2)cc1C#N	4%	-3	2	·	·
Nn1c(SCC(=O)Nc2ccccc2F)nnc1C1CCCCC1	·	17	·	·	-2.2
CC1CCCC(NCC(O)COC(c2ccc(F)cc2)c2ccc(F)cc2)C1C (centres undefined)	5.7µM*	100	-41	·	4.1
CC(C)Nc1nc(NC(C)C)nc(SCCOC(=O)Nc2ccc(Cl)cc2Cl)n1	60%	26	-7	-10	2.1
CCOC(=O)CNc1nc(Cl)c(C#N)s1	6%	-1	1	·	1.1

Brought forward from above: 2 entries, followed by the next part.
SMILES	Mtb H37Rv	Mtb betalactam	Arbovirus inh	YopH inh	RecA splice inh	others
CC(C)Nc1nc(NC(C)C)nc(SCCOC(=O)Nc2ccc(Cl)cc2Cl)n1	60%	26	-7	-10	2.1
CCOC(=O)CNc1nc(Cl)c(C#N)s1	6%	-1	1	·	1.1
Cc1cc(C)cc(-n2ncc3c2CCCC3NC(=O)CN2CCCCC2=O)c1 (centres undefined)	·	-9	·	·	2.9
C[C@H](NC(=O)c1nc[nH]c1C(=O)N[C@@H](Cc1ccccc1)C(=O)OC(C)(C)C)c1ccccc1	8%	-11	-20	·	1.6
CC(C)(C)c1ccc(C(=O)N/N=C/c2ccccn2)cc1	·	97	·	·	1.8
COc1ccc(CN(C)CC(=O)c2c(N)n(Cc3ccccc3)c(=O)n(C)c2=O)c(OC)c1	3%	-3	0	-7	-1.7
O=C(NCc1ccco1)C1Cc2ccccc2CN1S(=O)(=O)c1ccccc1F (centres undefined)	·	6	·	-8	·
Cc1cccc(OCC(=O)NC(=S)Nc2ccccc2N2CCOCC2)c1	-2%	-3	13	-16	1.2
Cc1nnc(SC(C)C(=O)N2CCc3ccccc32)s1 (centres undefined)	5%	-7	-1	-25	1.7
COC(=O)c1ccc(CN2CCC(Oc3cccc(C(=O)N4CCOCC4)c3)CC2)cc1	·	-6	·	·	0.8
COc1ccc(NC(=O)c2c(C(F)(F)F)nn(C)c2SCc2ccccc2)cc1	-3%	3	5	-41	4.4
CCCOc1ccc(CC(=O)NCc2ccco2)cc1OC	0%	-4	-5	9	-1.0
CC(C)=CC(=O)OCC(=O)Nc1ccc(Cl)cc1	5%	1	-15	·	-0.4
O=C(c1cc[n+]([O-])cc1)N1CCc2c([nH]c3ccccc23)C1c1ccccc1Cl (centres undefined)	-1%	2	-2	·	2.8
CCN(CC)C(=O)c1[nH]cnc1C(=O)N[C@@H](Cc1ccccc1)C(=O)OCc1ccccc1	9%	-1	0	·	2.2
Cc1cc2oc(=O)cc(C)c2cc1NC(=O)CCC(=O)O	-5%	3	9	-17	-5.1
CCc1cccc(NC(=O)CSCc2cc(=O)[nH][nH]2)c1	-6%	-17	-10	-5	81*
Cc1ccc(S(=O)(=O)N2CCCC(C(=O)NCC3COCCO3)C2)cc1 (centres undefined)	1%	-3	3	-36	1.1
CC1=C(C)C(=O)N(c2ccc(C(=O)O)cc2)C1=O	-7%	-5	-3	-22	3.1
CC(NC(=O)c1ccc(Br)cc1Br)c1ccccc1 (centres undefined)	-5%	25	-10	·	0.1
CC(C)N1C(=O)c2ccccc2N(Cc2ccccc2)S1(=O)=O	-10%	-2	·	·	13
Cc1c(C(=O)N2CCCCCC2)c(S(=O)(=O)Nc2ccc(F)cc2)c(C)n1C	·	-6	·	·	-1.3
CCCCN(C(=O)/C=C/c1ccccc1)C1CCS(=O)(=O)C1 (centres undefined)	·	0	·	·	-0.9
Cc1ccc(N(C(=O)CNC(=O)c2ccco2)C(C(=O)NC2CCCC2)c2ccncc2)cc1C (centres undefined)	·	-4	·	·	-1.7
CCOC(=O)/C(=N\Nc1ncnc2ccccc12)c1ccc(OC)cc1	·	-2	·	·	-4.1
O=C(Nc1ccc(F)c(F)c1)c1ccco1	0%	9	-3	·	0.9
CCOc1ccc(-c2nnc(NC(=O)CCCOc3cccc(C)c3)o2)cc1	?	99	-15	-33	2.3
SMILES	Mtb H37Rv	Mtb betalactam	Arbovirus inh	YopH inh	RecA splice inh	others
Cc1ccc(N=Nc2c(=O)[nH]n3c(=O)cc(C)[nH]c23)cc1	5%	97	-3	-35	-0.7
COc1ccc(N2CCN(S(=O)(=O)c3cccc4cccnc34)CC2)cc1	5%	3	-7	-44	1.0	Arbovirus inh repeat=7
CC1CCCCN1C(=O)c1c([N+](=O)[O-])cnn1C (centres undefined)	·	8	·	·	-1.6
COC(=O)C[C@H]1c2cc(F)ccc2S(=O)(=O)N1c1ccccc1	-6%	-5	·	·	0.4
Cc1ccc(S(=O)(=O)N(C)C)cc1NC(=O)C(C)OC(=O)C1CCCC1 (centres undefined)	·	-2	·	·	-0.4
CNC(=S)N1CCN(c2nc(-c3ccc(Cl)cc3)cs2)CC1	·	4	·	·	0.7
C=CCn1c(SCc2nc3ccccc3[nH]2)nnc1-c1ccccn1	3%	-19	0	-13	4.4
Cc1cccc2sc(NC(=O)CN(C)S(=O)(=O)c3ccc(Br)s3)nc12	17%	4	-26	-12	7.4
CCOc1ccccc1C(=O)N(Cc1sccc1C)C1CCS(=O)(=O)C1 (centres undefined)	·	-15	·	·	2.0
O=C1C/C(=C/NCc2ccccc2)C(=O)N1	12%	34	6	-17	·	Arbovirus inh repeat=10
C=CC1CN2CCC1CC2[C@@H](OC(=O)c1ccc(OC)cc1)c1ccnc2ccccc12 (some centres undefined)	0%	3	1	-9	4.4
NCCNc1ccc2nnnn2n1	-7%	-3	3	·	0.4
CCc1ccc(N2C(=O)NC(=O)/C(=C/c3cccn3CCOc3ccc(C(C)CC)cc3)C2=O)cc1 (centres undefined)	1%	17	-5	-7	-1.9
Cc1cc(NC(=O)CSc2nnc(CNC(=O)c3ccc(C(C)(C)C)cc3)o2)no1	·	?	·	·	-1.0
Cc1noc(NS(=O)(=O)c2ccc(NC(=O)c3cc(-c4ccccc4Cl)nc4ccccc34)cc2)c1C	5%	2	12	·	8.1
CCOc1ccc(S(=O)(=O)N2CC(=O)Nc3ccccc32)cc1	·	?	·	·	-0.9
CC(=O)c1c(C)[nH]c(C(=O)Nc2cc(F)ccc2C)c1C	·	0	·	·	1.5
Cc1cc(/C=N/Nc2nc(N)ncc2[N+](=O)[O-])c(C)n1-c1ccccc1F	-3%	5	·	·	-3.9
